# Bioassay records deposited in PubChem by National Center for Advancing Translational Sciences (NCATS).
# TRPML1 agonist: human mucolipin-1 channel agonism; Q9GZU1; TRPML1-expressing cells, Ca2+ dye fluorescence, FDSS; host cell line not named in the record; reference of the full effect not given here; 410,000 tested, 0.12% active; activation, % (no concentration beside the values); in the data active = activation above about 50%; inconclusive = about 30% to 50%; inactive = below about 30%; note: 0% is about no effect; the text of the record puts the active cut at 80%
# Target sequence (Q9GZU1 whole entry, looked up): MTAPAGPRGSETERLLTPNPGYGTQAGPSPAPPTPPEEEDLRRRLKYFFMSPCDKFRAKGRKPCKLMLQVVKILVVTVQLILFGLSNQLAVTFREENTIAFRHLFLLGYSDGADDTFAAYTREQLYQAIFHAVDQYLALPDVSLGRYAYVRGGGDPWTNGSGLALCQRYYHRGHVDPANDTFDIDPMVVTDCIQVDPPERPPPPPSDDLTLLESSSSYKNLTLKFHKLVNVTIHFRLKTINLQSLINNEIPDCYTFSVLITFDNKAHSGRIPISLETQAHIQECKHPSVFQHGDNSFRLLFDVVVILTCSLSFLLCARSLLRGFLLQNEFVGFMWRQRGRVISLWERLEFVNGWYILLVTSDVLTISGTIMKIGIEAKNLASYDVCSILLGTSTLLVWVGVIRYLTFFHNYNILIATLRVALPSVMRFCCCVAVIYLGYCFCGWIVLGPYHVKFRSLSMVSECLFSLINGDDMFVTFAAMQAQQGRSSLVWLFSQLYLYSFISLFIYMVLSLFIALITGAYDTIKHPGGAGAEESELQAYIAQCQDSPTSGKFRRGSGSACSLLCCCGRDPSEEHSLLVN
#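 In this qHTS format, compounds were pin-transferred onto Ca8-dye-loaded TRPML1-DL cells induced with Tet overnight, and intracellular Ca2+ fluorescence was recorded kinetically for 110 s after a 10 s baseline. A subsequent 4uM final 54-4 (EC80) addition followed by a second 110 s read served as the antagonist phase.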
# gsp agonist: agonists of gsp mutant (McCune-Albright syndrome) | gsp mutant cells, cAMP HTRF, 30 min; control for the full effect not named in the record | Potency, µM (series often up to 76.9 µM), for inactives: top-dose activation (cAMP increase), usual class: activators | 340,000 tested, 0.13% active; active = well fitted activation curve with a large enough effect; inconclusive = small, poorly fitted or top-dose-only effect, or another doubt; inactive = no such curve, though single readings can be large or run the other way; cell line not stated here;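 note: phosphodiesterase inhibitor Ro 20-1724 added with compounds to block cAMP breakdown; potency is the fitted concentration of half-maximal effect; nearly all actives have a fitted effect of over 60% in size; about a fifth of the inactives were tested at one dose only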
#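 Cells in DMEM/10% FBS with G418 were pretreated with compounds in DMSO plus […] (300 uM stock) for 30 min at 37C. cAMP was measured by HTRF (cAMP-d2 plus anti-cAMP antibody-K) after 30 min at room temperature.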
# ClpP mod: qHTS Assay for Activators of ClpP; 340,000 tested, 1.9% active; ATP-dependent Clp protease proteolytic subunit (Bacillus subtilis (strain 168)), P80244; purified B. subtilis ClpP, FRET peptide cleavage, 20 min; Potency, µM (top dose mostly 57.5 µM), for the others: top-dose activity change, negative = active; active = well fitted falling curve with a large enough effect; inconclusive = small, poorly fitted or top-dose-only effect; inactive = no such curve, though single readings can be large or run the other way; note: potency is the fitted concentration of half-maximal effect; the source files actives as falling curves though it sought activators and does not explain the sign; nearly all actives have a fitted effect of over 65% in size; many hits overshoot -100%
# Target sequence (P80244 whole entry, looked up): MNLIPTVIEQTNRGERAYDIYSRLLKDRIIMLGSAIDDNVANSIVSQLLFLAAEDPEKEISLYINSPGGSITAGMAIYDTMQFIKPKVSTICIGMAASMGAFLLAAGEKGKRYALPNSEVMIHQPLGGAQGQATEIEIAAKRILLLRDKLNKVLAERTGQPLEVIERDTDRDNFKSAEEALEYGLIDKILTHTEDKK
#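 Buffer: 100 mM Tris/HCl pH8, 100 mM KCl, 0.05% low protease BSA, 2.5% glycerol, 0.01% Tween-20. ClpP 10 microg/mL final; 20 min RT; delta FRET normalized to ADEP and DMSO controls.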
# gsp antag: antagonists of gsp mutant (McCune-Albright syndrome); gsp-mutant cells, cAMP HTRF, 30 min; control for the full effect not named in the record; Potency, µM (highest dose often 76.9 µM), for the others: at the top dose activity change, negative = inhibition, hits mostly inhibitors; 340,000 tested, 0.4% active; AID 624288; active = falling curve of any shape with a large fitted effect; inconclusive = falling curve, mostly with a smaller effect; inactive = flat or rising curve; cell line not stated here;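 note: intracellular cAMP measured with PDE inhibitor Ro 20-1724 present during compound exposure; potency is the fitted concentration of half-maximal effect; % is set by controls: 0 for no effect and ±100 for the full control effect; nearly all actives have a fitted effect of over 65% in size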
#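 HTRF cAMP measurement after 30 min RT detection following 30 min, 37C compound treatment alongside […] (added as 300 uM solution) in G418-selected cells seeded at 2000/well and grown 16–24 h.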
# TRPML1 blocker: human mucolipin-1 channel inhibition | Q9GZU1 | TRPML1-inducible cells, Ca2+ dye fluorescence, FDSS; stronger effect = lower value; inhibition of EC80 agonist-evoked calcium signal | activity change, negative = inhibition, % (no concentration beside the values) | 390,000 tested, 0.02% active | AID 624415; in the data active means activity change below about -50%; inconclusive means about -30% to -50%; inactive means above about -30%;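 note: stimulus is agonist 54-4 at its EC80 concentration; % is set by controls: 0 for no effect and ±100 for the full control effect; compound concentration not given in the record; the text of the record puts the active cut at -80%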
#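 Calcium fluorescence in TRPML1-DL cells induced overnight with Tet: a 110 s read after compound pin addition, then a 110 s antagonist read after challenge with 54-4 at 4 uM final (EC80).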
# Menin MLL FP FL: displaces fluorescein MLL peptide from human menin | AID 1766 | Fluorescence polarization, fluorescein-MLL peptide displacement from menin | FP activity change, % at 61.4 µM | 290,000 tested, under 10 active; inconclusive = falling polarisation curve, or a change in total fluorescence; inactive = total fluorescence flat and polarisation flat or rising; no compound was filed as active; the % refers to the polarisation; negative = inhibition;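 note: % of control where 0% means no effect; inhibitors lower the polarisation; unlabelled MLL peptide was the positive control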
# * = called active by the depositor; u = inconclusive; x = not tested or not shown; & = joins results of further samples; [ ] = remark or other dose.
SMILES,TRPML1 agonist,gsp agonist,ClpP mod,gsp antag,TRPML1 blocker,Menin MLL FP FL
CSC1=NP(=S)(SC)N2CCCC2=C1C#N (configuration not stated),-0.1,-23%,-0.7%,-3%,9,2.6
CC(=O)N1N=C2C3CCN(CC3)C2C1c1ccccc1 (configuration not stated),0.1,27%,-2.3%,5%,-1,3.8
O=C1CCN(C(=O)CNC(=O)Cc2ccccc2)CC1,-0.7,5%,x,-1%,-5,-0.1
Cc1ccc(S(=O)(=O)NCC2CCC(C(=O)NCCCN3CCOCC3)CC2)cc1 (configuration not stated),-0.9,-4%,93%,5%,8,-1.0
CCCCCn1c(=O)c(C(=O)Nc2ccccc2N)c(O)c2ccccc21,x,4%,-17%,-2%,x,5.5
O=c1[nH]c(=O)n(Cc2ccco2)c(O)c1/C=N/N1CCCCCC1,-0.9,1%[15.4 µM],-1.4%,-2%,1,3.3
Cc1nonc1OCCNCCNc1ccc([N+](=O)[O-])c2cccnc12,0.1,u,x,-15%,-7,4.8
CC(Oc1ccc(Cl)cc1Cl)C(=O)Nc1ccc(S(=O)(=O)Nc2cnc3ccccc3n2)cc1 (configuration not stated),-0.3,-39%[inhibitor],16µM*,-20%,-13,0.1
COC(=O)C1=C(c2c(C)noc2C)C[C@@H]2CC[C@H]1N2C(=O)NC1CCCCC1,-0.7,20%,1.1%,7%,-16,x
CC12CCC(=O)C=C1C=CC1C2CCC2(C)C(O)CCC12 (configuration not stated),-0.7,31%,x,0%,4,x
CSc1ccc(C(=O)C(C)(C)N2CCOCC2)cc1,2.0,10%,4.0%,-5%,16,-3.1
O=[N+]([O-])c1cc(S(=O)(=O)/N=C(/c2ccccc2)N2CCOCC2)ccc1Cl,-0.2,-97%[inhibitor],3.1%,-9%,4,0.2
N=Cc1c(O)n(-c2cccc(Cl)c2)c(=O)[nH]c1=O,0.0,4%,0.1%,2%,10,2.4
CCOC(=O)C1(c2ccccc2)CCN(CC(=O)Nc2cccc3ccccc23)CC1,1.5,-18%,-5.3%,-23%,12,2.9
COc1ccc(NC(=O)c2cccn(Cc3ccc(Cl)cc3)c2=O)c(OC)c1,2.3,x,-3.7%,x,1,x
Brc1ccccc1,x,x,-7.0%,7%,x,1.8
Cc1ccc(N2C(=O)CC(=O)NC2=O)c(C)c1,0.5,7%,-2.0%,7%,20,-0.7
O=C1NC(=O)C(CCc2ccncc2)(Cc2ccc(OCc3ccccc3)cc2)C(=O)N1,-0.3,-4%[15.4 µM],-0.5%,9%,0,0.6
[O-][n+]1onc2c1CCC1N(O)CCC21O (configuration not stated),0.1,-52%[inhibitor],-1.1%,1%,-20,0.8
Cc1ccc(S(=O)(=O)NN)c(C)c1N1CCCC1=O,x,u,-1.8%,11%,x,8.3
CC(C)n1c(N2CCN(S(=O)(=O)c3cccc([N+](=O)[O-])c3)CC2)nc2ccccc21,0.5,-11%,x,-14%,-2,-2.5
COc1ccc(NC2=NC(C)(C)CS2)cc1,0.0,-55%[inhibitor],2.2%,-7%,18,-3.6
Cc1ccc2c(c1)cc1c(=O)n(CC(=O)N3CCC4(CC3)OCCO4)nc(C)n12,-0.7,3%,4.4%,-2%,8,x
Cc1ccc(CN2CCSc3ccc(C(=O)N4CCC5(CC4)OCCO5)cc32)cc1,-0.2,25%,3.3%,-17%,-2,2.7
O=C(CCC(=O)N1CCC2(CC1)OCCO2)Nc1nnc(C(F)(F)F)s1,0.2,-20%,-0.1%,-23%,2,1.4
# Following part
SMILES,TRPML1 agonist,gsp agonist,ClpP mod,gsp antag,TRPML1 blocker,Menin MLL FP FL
O=[N+]([O-])c1ccc(C2[C@H]3C(c4ccccc4)=NC4(CCCC4)N23)cc1 (some centres not stated),3.7,5%,-0.4%,11%,47,2.2
CCc1n[nH]c(CCN)n1,0.9,-4%[15.4 µM],x,6%,27,1.7
O=C(Nc1ccc(Cl)cc1)N1CC2CC(C1)c1cccc(=O)n1C2 (configuration not stated),0.0,-5%,1.3%,11%,-2,x
O=C(Nc1ccc(Br)cc1C(=O)c1ccccc1Cl)c1ccc(Br)cc1,-0.6,x,-0.2%,x,-5,x
Cc1onc(-c2c(Cl)cccc2Cl)c1/C(N)=N/OC(=O)N(C)C,1.8,0%,x,5%,18,1.0
C=Cn1ccnc1P(O)(=S)c1nc(C)c(CCOC(C)=O)s1 (configuration not stated),0.3,-24%,x,13%,-13,-0.3
CN1C2CCC1CC(OC(c1ccccc1)c1ccccc1N)C2 (configuration not stated),-0.4,x,3.4%,-4%,-2,2.7&0.3
COC(=O)C1=Nc2ccccc2/C1=C\c1c(O)n(-c2ccc(Br)cc2)c(=O)[nH]c1=O,0.1,-25%,-0.9%,-1%,-4,u
CCN(CC(=O)Nc1ccccc1C(F)(F)F)C(=O)CCSc1ccc(F)cc1,-0.1,u,13µM*,-6%,-7,x
CCCCCOc1ccc(C)cc1CN(CCCl)CCCl,1.3,7%[15.4 µM],x,19%,-3,2.7
CCC(=O)N1CC(=O)Nc2ccc(C)cc2C1c1ccc(F)cc1 (configuration not stated),-0.6,x,0.8%,x,-8,x
CC(=NCCCN1CCCCC1)c1c(O)n(Cc2ccccc2)c(=O)[nH]c1=O,3.6,9%,-3.1%,0%,-6,8.5
Nc1ccc2c(c1)Cc1cc([N+](=O)[O-])ccc1-2,u,6%[15.4 µM],x,-4%,-22,u
Oc1ccc(Cl)cc1Cc1ccccc1,2.2,-3%,-1.5%,4%,8,0.6
CCN1CCN(S(=O)(=O)c2ccc(Cl)c(C(=O)Nc3ccc(C(=O)N(CC)CC)cc3)c2)CC1,-0.8,13%,0.8%,10%,-1,x
O=P1(c2ccccc2)Nc2ccccc2N1c1ccccc1 (configuration not stated),1.3,9%,x,-9%,-2,x
Cn1c(O)c(C=NCCN2CCOCC2)c(=O)[nH]c1=S,1.4,u,x,1%,-11,2.5
CC(C)[C@H]1C(=O)N2CCC[C@H]2[C@]2(O)O[C@](NC(=O)[C@@H]3C=C4c5cccc6[nH]cc(c56)C[C@H]4N(C)C3)(C(C)C)C(=O)N12,-0.6,x,4.1%,0%,-14,u
O=[N+]([O-])c1ccc(N2CCNCC2)cc1NCC1CCCO1 (configuration not stated),-0.6,-27%,0.6%,4%,1,3.8
CCc1ccc(C(=O)C23CN4CN(CN(C4)C2)C3)cc1,1.9,0%,-3.0%,15%,-17,0.9
CCC(=Nc1cc(OC)ccc1OC)c1c(O)[nH]c(=O)[nH]c1=O,-0.8,u,0.4%,-1%,7,-3.6
O=C1CC(c2ccc(Br)cc2)c2c(c3ccccc3oc2=O)O1 (configuration not stated),-0.5,x,4.6%,x,-17,x
O=C1C=CC(=O)C2C1C1(Cl)C(Cl)=C(Cl)C2(Cl)C1(Cl)Cl (configuration not stated),0.8,-8%,0.8%,-18%,6,x
NCCc1c[nH]c2ccc(C(N)=O)cc12,-0.2,x,-14%,0%,24,u
O=C(CSc1ccc(Cl)cc1)NC1=NN(c2ccccc2)C(=O)C1,0.4,u,1.4%,-2%,-7,5.0
# Continued.
SMILES,TRPML1 agonist,gsp agonist,ClpP mod,gsp antag,TRPML1 blocker,Menin MLL FP FL
O=c1[nH]c(=O)n(Cc2ccco2)c(O)c1C=NCc1cccs1,0.3,-84%[inhibitor],-1.6%,12%,-4,1.3
c1ccc(CN2CCN(Cc3ccc4ccccc4c3)CC2)cc1,-0.9,-3%[15.4 µM],0.7%,10%,1,-2.0
c1ccc2c(CCNC3=NCCC3)c[nH]c2c1,-0.7,3%,-0.3%,-2%,22,3.9
O=c1[nH]c2ccccc2n1C1CCN(C(c2nnnn2-c2ccc3c(c2)OCCO3)C2CC2)CC1 (configuration not stated),-0.1,x,-0.3%,x,2,x
CN(C)C1C(=O)C(C(N)=O)=C(O)C2(O)C(=O)C3=C(O)c4c(O)cccc4C(C)(O)C3CC12 (configuration not stated),0.6,x,-1.7%,10%,3,u
CCn1cc(CN2CCCC(C(=O)c3sccc3C)C2)cn1 (configuration not stated),0.0,26%,x,11%,-10,-1.8
COc1ccc(/C=C/C(=O)NC(=S)N2C[C@H]3C[C@H](C2)c2cccc(=O)n2C3)cc1OC,x,x,-6.0%,1%,x,2.2
Cc1ccc2c(c1)N(CCC(=O)N1CCC3(CC1)OCCO3)C(=O)CO2,-0.2,14%,0.2%,15%,-9,6.6
O=C1/C(=C\c2cccnc2)N2CCC1CC2,0.7,-2%[15.4 µM],x,1%,-6,0.7
Cc1nc2c(=O)n(C)c(=O)nc-2n(C)n1,-0.2,-12%,1.1%,0%,2,3.1
COc1ccc(-c2nn(CCC#N)cc2C(=O)O)cc1,0.8,9%,x,14%,-4,4.3
CCOc1cccc(OCC)c2c(C)[n+](CC3CCCO3)c(C)c1-2 (configuration not stated),3.4,27%,-1.7%,-7%,16,u
O=C(c1ccccc1)N1CCN(CCc2ccccc2)CC1,0.2,-2%,-1.2%,-12%,-1,u
COc1ccccc1-n1c(-c2cccs2)nc2ccccc2c1=O,0.6,-25%,-1.0%,-6%,-1,0.5
O=C(O)C(F)(F)S(=O)(=O)O,0.2,u,-0.8%,9%,12,-1.1
Cn1c(O)c(C(=Nc2ccc(F)cc2)c2ccccc2Cl)c(=O)n(C)c1=O,1.0,5%[15.4 µM],-0.7%,-5%,-3,2.0
COC(=O)C1=C(c2cccc(C#N)c2)C[C@@H]2CC[C@H]1N2C(=O)NCCCOC(C)C,-0.5,x,-5.1%,0%,-7,x
CC(=O)c1c(C)n(C2CCCCC2)c2ccc(O)cc12,1.1,0%[15.4 µM],x,-11%,-24,-2.5
CN(C)c1ccc(-[n+]2c(-c3ccccc3)cc(-c3ccccc3)cc2-c2ccccc2)cc1,1.6,u,x,-24%,51,-1.0
[Cl][Pt+2][Cl].[NH-]C1CCCCC1[NH-] (configuration not stated),1.1,x,-0.6%,-2%,16,x

# An excerpt of these results, with bars between the fields.
canonical_smiles | TRPML1 agonist | gsp agonist | ClpP mod | gsp antag | TRPML1 blocker | Menin MLL FP FL
CC(C)[C@H]1C(=O)N2CCC[C@H]2[C@]2(O)O[C@](NC(=O)[C@@H]3C=C4c5cccc6[nH]cc(c56)C[C@H]4N(C)C3)(C(C)C)C(=O)N12 | -0.6 | x | 4.1% | 0% | -14 | u
O=[N+]([O-])c1ccc(N2CCNCC2)cc1NCC1CCCO1 (configuration not stated) | -0.6 | -27% | 0.6% | 4% | 1 | 3.8
CCc1ccc(C(=O)C23CN4CN(CN(C4)C2)C3)cc1 | 1.9 | 0% | -3.0% | 15% | -17 | 0.9
CCC(=Nc1cc(OC)ccc1OC)c1c(O)[nH]c(=O)[nH]c1=O | -0.8 | u | 0.4% | -1% | 7 | -3.6
O=C1CC(c2ccc(Br)cc2)c2c(c3ccccc3oc2=O)O1 (configuration not stated) | -0.5 | x | 4.6% | x | -17 | x

# This is a subset. The share of hits here may be higher or lower than overall.
